# Rango-impB inh = inhibitors of Rango-importin beta complex formation; 340,000 compounds, 0.031% hits; Rango CFP/YFP FRET sensor + importin beta, 45 min; Potency, µM (doses to about 92.2 µM), for inactives: at the highest dose inhibition of complex formation; active = rising FRET ratio curve, often small or poorly fitted; inconclusive = mostly compound fluorescence or quenching in the first reads; inactive = flat curves in all reads;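 note: potency is the fitted concentration of half-maximal effect; 0% = DMSO wells and 100% = buffer wells lacking importin beta; nearly all actives have a fitted effect of over 15% in size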
#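 FRET biosensor (snurportin 1 IBB flanked by EYFP and cerulean), 50 nM, with compound 5 min, then 0.125 microM importin beta in PBS, 1 mM DTT, 0.02% Tween-20, 0.1% BSA. CFP/YFP ratio read after 45 min at room temperature; pre-read flags interference.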
# miR-21 reporter = raises the signal of a miR-21 reporter; HeLa miR-21 FLuc reporter, luciferase, 48 h; Potency, µM (highest dose often 38.3 µM), for the others: top-dose reporter change, positive = more light; 340,000 tested, under 10 active; active = well fitted rising curve with a large enough effect; inconclusive = small, poorly fitted or top-dose-only effect; inactive = no such curve, though single readings can be large or run the other way;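 note: % of control where 0% means no effect; miR-21 action dims this reporter so a rising signal means less miR-21 action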
#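 Using DMEM plus 10% FBS, HeLa miR-21-FLuc cells are incubated with test compounds (final up to about 40uM) for 48 hours; firefly luciferase signal is then imaged following reagent-mediated lysis.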
# Rango release inh = prevents RanGTP from dissociating the Rango-importin beta complex | Biochemical FRET Rango-importin beta, RanGTP-induced dissociation | Potency, µM (highest dose often 46.1 µM), for inactives: at the highest dose activity change, negative = inhibition | 340,000 compounds, 0.071% hits | AID 540253; active means falling FRET ratio curve, often poorly fitted, with flat reads before Ran was added; inconclusive means other falling curves, or compound fluorescence or quenching; inactive means flat or rising ratio curve;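 note: potency is the fitted concentration of half-maximal effect; % of control where 0% means no effect; nearly all actives have a fitted effect of over 45% in size; -100% = wells without RanGTP and RCC1; the record marks most hits as doubtful in a second field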
#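 Compounds sat 5 min at room temperature with 0.1 uM Rango biosensor plus 0.25 uM importin beta, then FRET pre-read. RanGTP-RCC1 (0.6 uM Ran, 2mM GTP, 0.2 uM RCC1) added for 45 min, and the CFP/YFP post-read measured blocked complex dissociation.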
# GLA inh pH 4.5 = blocks human alpha-galactosidase A at pH 4.5; P06280; purified enzyme, 4-MU-alpha-Gal fluorescence, pH 4.5; activity change, negative = inhibition, % at 105 µM; 230,000 tested, under 10 active; AID 1467; inconclusive = small, poorly fitted or top-dose-only inhibition, or a rising curve; inactive = flat fitted curve, though single readings scatter; no compound was filed as active;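 note: 0% = full activity with enzyme and -100% = basal without enzyme; dose as in the result columns while the protocol names 77 µM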
# Target sequence (P06280 whole entry, looked up): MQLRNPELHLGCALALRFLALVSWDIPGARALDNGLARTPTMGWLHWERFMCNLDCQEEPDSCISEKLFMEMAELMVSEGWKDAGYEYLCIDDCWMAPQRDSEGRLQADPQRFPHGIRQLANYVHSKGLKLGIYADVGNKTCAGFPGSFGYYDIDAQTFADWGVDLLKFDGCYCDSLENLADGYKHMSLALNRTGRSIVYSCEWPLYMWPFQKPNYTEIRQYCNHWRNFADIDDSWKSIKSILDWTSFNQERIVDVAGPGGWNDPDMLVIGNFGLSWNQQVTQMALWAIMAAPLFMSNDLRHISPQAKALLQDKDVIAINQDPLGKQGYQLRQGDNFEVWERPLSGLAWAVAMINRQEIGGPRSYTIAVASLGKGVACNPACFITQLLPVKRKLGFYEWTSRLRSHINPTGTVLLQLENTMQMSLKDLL
# Numbers without * were called inactive; ? = inconclusive; · = not tested or not shown; & = joins results of further samples.
# Each structure is followed by: Rango-impB inh	Rango release inh	GLA inh pH 4.5	miR-21 reporter
> Cc1ccc2[nH]c3c(N4CCOCC4)ncnc3c2c1
→ 1.6%	11%	13	-23%
> CC(=O)c1cc(F)c(N2CCOCC2)cc1C
→ 3.7%	-3%	5	-7%
> C=C(C)Cn1c(SCCCO)nc2c1c(=O)[nH]c(=O)n2C
→ 0.4%	0%	-2	-11%
> O=C(CN(C(=O)c1csnn1)c1cccc2ccccc12)NCc1ccc(F)cc1
→ 0.6%	0%	·	13%
> CCN(C(=O)COC(=O)/C=C/c1nc2ccccc2s1)C1CCS(=O)(=O)C1 (stereo unspecified)
→ ?	1%	-8	-1%
> CC(C)C(=O)NN(C(=O)c1ccccc1)c1ccccc1
→ -3.4%	12%	-3	0%
> OCC1CCCN(Cc2cn(Cc3ccccc3)nc2-c2cc3ccccc3o2)C1 (stereo unspecified)
→ 5.6%	2%	?	-15%
> COc1ccc2c(c1)[nH]c1c(=O)n(Cc3ccncc3)cnc12
→ -3.0%	12%	0	-28%
> CC(=O)Nc1ccc(Cl)cc1-c1ccccc1
→ 0.4%	-17%	·	·
> Cc1nnc(N/N=C/c2ccc(-c3ccccc3F)o2)n1N
→ 1.8%	-7%	-1	-46%
> O=C(NN=C(Cc1ccccc1)Cc1ccccc1)C1CC1
→ -2.3%	20%	-3	-16%
> CCOC(=O)c1ccc(NC(=O)CCC2COc3ccccc3O2)cc1 (stereo unspecified)
→ -0.3%	-5%	1	-2%
> CCn1ccc(C(=O)NC2=NCCS2)n1
→ -0.1%	-4%	-1	-40%
> CC(C)N(C)Cc1nnnn1CC(=O)NCCc1cccc(C(F)(F)F)c1
→ -0.2%	-10%	·	0%
> CCn1c(C)[n+](CC)c2ccc(S(=O)(=O)NC)cc21
→ -3.0%	-8%	-7	0%
> CSCC[C@H](NC(=O)OC(C)(C)C)C(=O)N1CCC(C(=O)N[C@@H](Cc2c[nH]c3ccccc23)C(=O)O)CC1
→ 0.7%	-4%	·	0%
> CCC(Sc1ncccc1C(=O)O)C(=O)N1CCCC1 (stereo unspecified)
→ 2.5%	25%	5	-9%
> COc1ccc(N(C(=O)Cc2cccs2)C(C(=O)NC2CCCC2)c2ccncc2)cc1OC (stereo unspecified)
→ -6.2%	11%	·	-1%
> Cc1ccc(NCC(=O)c2ccccc2)cc1Cl
→ -2.0%	-5%	1	-5%
> N#CCCN/N=C(\Cc1nc2ccccc2[nH]1)c1ccccc1
→ ?	?	3	-13%
> CN(CC(=O)Nc1cccc(S(=O)(=O)N2CCCC2)c1)Cc1ccccc1
→ -1.2%	-8%	·	·
> Cc1cccc(NC(=O)C2C3C=CC(C4CC34)C2C(=O)O)c1 (stereo unspecified)
→ 1.1%	-11%	3	-10%
> Cc1ccc(S(=O)(=O)N2CCCCC2)cc1NC(=O)c1cncc(Br)c1
→ 1.3%	3%	·	·
> N#CC1=C(N)OC2=C(C(=O)CC(c3ccccc3)C2)C1c1cccnc1 (stereo unspecified)
→ -1.3%	-2%	-15	-14%
> Cn1c(=O)c([N+](=O)[O-])c(N2CCN(Cc3ccc4c(c3)OCO4)CC2)c2ccccc21
→ 2.5%	23%	-17	14%
> COc1cccc(C(=O)Nc2ccc3ccccc3c2)c1
→ 0.1%	-3%	·	-14%
> Cc1ccc(/C=N/n2c(-c3cccnc3)n[nH]c2=S)s1
→ 17%	7%	6	-6%
> COc1cc(/C=C2/C(=O)ON=C2C)cc(Cl)c1O
→ 0.2%	-6%	·	1%
> Cc1[nH]c2c(ccc3cccnc32)c1C
→ 4.0%	-1%	-1	-19%
> COc1ccc2c(c1)C(=O)C1NC(=O)NC(=O)C1(Br)N2 (stereo unspecified)
→ 1.7%	-8%	·	·
> O=[N+]([O-])c1cccc(/C=N/N2CCN(Cc3ccccc3)CC2)c1
→ -1.4%	1%	-2	-40%
> CCc1ccc(NC(=O)N(CCCOC(C)C)C2CCN(C(C)=O)CC2)cc1
→ -0.5%	-19%	-8	-11%
> CCN(CCCNC(=O)C1CCN(S(=O)(=O)CC)CC1)c1cccc(C)c1
→ -3.9%	4%	6	-1%
> O=C(CSc1nccn1-c1ccccc1)c1ccc(Cl)cc1
→ -3.3%	0%	8	-28%
> Cc1oc(-c2ccccc2Cl)nc1CS(=O)CC(=O)NCCCN1CC(C)CC(C)C1 (stereo unspecified)
→ -0.1%	10%	·	-3%
> CCC(C)NC(=O)Nc1ccc(F)c(Cl)c1 (stereo unspecified)
→ 1.8%	-1%	-5	-22%
> CC(O)C(C(=O)OCc1ccc([N+](=O)[O-])cc1)N1C(=O)c2ccccc2C1=O (stereo unspecified)
→ -0.7%	-7%	·	-1%
> OC(CNC1CCCC1)COc1ccc(F)cc1 (stereo unspecified)
→ -3.0%	6%	·	0%
> c1ccc(-c2cncnc2)nc1
→ -0.4%	8%	·	·
> O=C(CSc1ccc(-c2ccccn2)nn1)NCc1ccccc1
→ -5.8%	0%	11	-7%
> OC1CCCN(Cc2cn(Cc3ccccc3)nc2-c2cc3ccccc3o2)C1 (stereo unspecified)
→ 3.7%	10%	2	-7%
> Cc1nn(-c2ccccc2)c(Cl)c1C(=O)NCc1cccs1
→ -3.7%	-1%	-7	-15%
> Nc1nonc1-n1nnc(C(=O)N/N=C/c2ccc3c(c2)OCO3)c1-c1ccccc1
→ -1.6%	-6%	·	-8%
> C=CCNC(=O)COC(=O)C1CCN(S(=O)(=O)c2ccc3c(c2)OCCO3)CC1
→ 4.8%	1%	·	-9%
> Cc1cccc2cc(CN(Cc3ccc4c(c3)OCO4)Cc3nnnn3C3CCCC3)c(=O)[nH]c12
→ -0.3%	1%	-6	-7%

# Profiles, quoted from the list. Order of screens: Rango-impB inh | Rango release inh | GLA inh pH 4.5 | miR-21 reporter
# Record of `O=[N+]([O-])c1cccc(/C=N/N2CCN(Cc3ccccc3)CC2)c1` : -1.4% | 1% | -2 | -40%
# Record of `CCc1ccc(NC(=O)N(CCCOC(C)C)C2CCN(C(C)=O)CC2)cc1` : -0.5% | -19% | -8 | -11%

# The list goes on:
# Each structure is followed by: Rango-impB inh	Rango release inh	GLA inh pH 4.5	miR-21 reporter
> Clc1ccc(-c2nnc(-c3cccc4ccccc34)o2)cc1Cl
→ 2.4%	0%	1	-6%
> Cc1csc(NC(=O)c2ccc(C)c(S(=O)(=O)N3CCCCC3)c2)n1
→ ?	-6%	1	5%
> C[C@H](CO)N1C[C@H](C)[C@@H](CN(C)Cc2ccncc2)Oc2c(NS(=O)(=O)c3ccc(Cl)cc3)cccc2C1=O
→ -0.8%	5%	·	·
> CCOC(=O)c1c(-c2ccc(OC)cc2)csc1NC(=O)CSc1ncnc2sccc12
→ ?	-12%	-6	4%
> COc1ccc(CCC(=O)NCC23CC4CC(CC(C4)C2)C3)cc1
→ -2.2%	3%	·	-5%
> COc1ccc(S(=O)(=O)NCCc2cc3ccc(C)c(C)c3[nH]c2=O)cc1
→ 0.2%	-11%	·	5%&8%
> Cc1cc(C)c(C(N)=O)c(Nc2cccc3ccccc23)n1
→ -1.9%	-26%	3	24%
> Cn1ccnc1SCC(=O)N1CCN(S(=O)(=O)c2ccccc2)CC1
→ 4.2%	-13%	-3	3%
> O=C(NC(Cc1ccccc1)C(=O)O)/C(=C\c1ccco1)NC(=O)c1ccccc1 (stereo unspecified)
→ ?	-26%	3	-8%
> CC(C)(C)c1ccc(Oc2ccc(NC(=O)c3ccco3)cn2)cc1
→ 0.4%	3%	-10	?
> COc1ccc(CCNc2nc(-c3cccnc3)nc3ccccc23)cc1OC
→ 0.9%	-2%	·	6%
> O=C(NC(=S)Nc1ccccc1N1CCOCC1)c1ccc(-c2ccccc2F)o1
→ -1.4%	-17%	-6	-4%
> Cc1ccc(CN(C)C(=O)COC(=O)CSc2cc(C)c3ccccc3n2)cc1
→ -4.5%	-4%	·	·
> COc1ccc(C2=NN(C(=O)CSc3nnnn3C)C(c3ccco3)C2)cc1 (stereo unspecified)
→ -2.5%	1%	·	·
> CSCC[C@H](NC(=O)OC(C)(C)C)C(=O)N1CCC(C(=O)N[C@@H](C)C(=O)O)CC1
→ 2.4%	0%	·	-8%
> Cc1ccccc1OCCC(=O)N1CCN(S(=O)(=O)c2ccc(Br)cc2)CC1
→ 0.8%	-12%	·	·
> CCc1cccc2c(C(=O)CN3C(=O)NC(C)(c4cccc5ccccc45)C3=O)c[nH]c12 (stereo unspecified)
→ ?	6%	-12	12%
> COc1ccccc1OCc1nc(-c2ccc([N+](=O)[O-])cc2)no1
→ -0.9%	12%	-2	-30%
> Cc1cc2c(c(=O)n1Cc1cccnc1)C(c1ccccc1)C(C#N)=C(N)O2 (stereo unspecified)
→ -0.4%	-4%	-1	-4%
> CCOC(=O)c1ccc(NC(=O)N2CCN(c3ccccc3OC)CC2)cc1
→ -2.7%	2%	9	-8%
> Cn1c(CN2CCCC2)c(C#N)c2ccccc21
→ 0.0%	14%	-5	-6%
> O/N=C/c1ccc(OCc2ccccc2)c(Br)c1
→ -1.9%	-4%	-17	-87%
> O=C(Nc1ccc(S(=O)(=O)N2CCCCC2)cc1)c1ccc(F)cc1
→ 1.4%	-2%	·	13%
> CCc1nonc1NC(=O)c1oc2ccc(Cl)cc2c1C
→ -1.6%	9%	·	-15%&-32%
> CC(=O)c1ccc(OC(=O)C2CC(=O)N(c3cccc(C)c3)C2)cc1 (stereo unspecified)
→ 6.7%	?	-1	-3%
> Cc1ccccc1NS(=O)(=O)c1ccc(C(=O)NCC2(N3CCOCC3)CCCCC2)cc1
→ 0.1%	-5%	·	·
> COc1ccccc1/C=C/C(=O)OCC(=O)Nc1cc(C(F)(F)F)ccc1N1CCOCC1
→ 0.1%	-12%	-15	18%
> COc1ccccc1CCC(=O)OCC(=O)c1c(N)n(CC(C)C)c(=O)n(C)c1=O
→ -2.8%	-13%	·	·
> COc1ccc(/C=N/N2CCN(c3ccccc3OC)CC2)cc1OC
→ -0.3%	6%	6	-21%
> COc1ccc(C2C(C(=O)N3CCN(c4ccccc4)CC3)c3ccccc3C(=O)N2C)cc1OC (stereo unspecified)
→ 1.3%	2%	4	1%
> O=C(N/N=C/c1cccnc1)c1ccccc1OCc1ccc(Cl)cc1
→ ·	·	5	21%
> CCN(CC(=O)Nc1ccccc1OC)C(=O)c1cccc(-n2cccc2)c1
→ -3.2%	-11%	·	1%
> CC(C)Nc1nc(NC(C)C)nc(N(C#N)C(C)C(=O)N(C)C)n1 (stereo unspecified)
→ ·	·	-4	0%
> COc1ccccc1NS(=O)(=O)c1cc(NC(=O)c2cccnc2)ccc1N1CCCCC1
→ 2.9%	1%	·	·
> CCOc1ccc(C(=O)Nc2ccc(N3CCN(C)CC3)cc2)cc1Br
→ 2.9%	5%	-3	-26%
> CCc1ccc(/C(C)=N/NC(=O)c2ccccn2)cc1
→ -2.7%	-3%	-16	-13%
> Cn1nc(C(=O)NCc2ccc(F)cc2)cc1C(=O)NCc1ccc(F)cc1
→ -3.9%	9%	·	·
> c1ccc(-c2nc3ccccn3c2NC2CCCC2)nc1
→ 2.9%	-9%	-1	25%

# Some of the entries so far, in CSV form:
Compound,Rango-impB inh,Rango release inh,GLA inh pH 4.5,miR-21 reporter
CC(O)C(C(=O)OCc1ccc([N+](=O)[O-])cc1)N1C(=O)c2ccccc2C1=O (stereo unspecified),-0.7%,-7%,·,-1%
OC(CNC1CCCC1)COc1ccc(F)cc1 (stereo unspecified),-3.0%,6%,·,0%
c1ccc(-c2cncnc2)nc1,-0.4%,8%,·,·
O=C(CSc1ccc(-c2ccccn2)nn1)NCc1ccccc1,-5.8%,0%,11,-7%
OC1CCCN(Cc2cn(Cc3ccccc3)nc2-c2cc3ccccc3o2)C1 (stereo unspecified),3.7%,10%,2,-7%
Cc1nn(-c2ccccc2)c(Cl)c1C(=O)NCc1cccs1,-3.7%,-1%,-7,-15%
Nc1nonc1-n1nnc(C(=O)N/N=C/c2ccc3c(c2)OCO3)c1-c1ccccc1,-1.6%,-6%,·,-8%
C=CCNC(=O)COC(=O)C1CCN(S(=O)(=O)c2ccc3c(c2)OCCO3)CC1,4.8%,1%,·,-9%
Cc1cccc2cc(CN(Cc3ccc4c(c3)OCO4)Cc3nnnn3C3CCCC3)c(=O)[nH]c12,-0.3%,1%,-6,-7%
Clc1ccc(-c2nnc(-c3cccc4ccccc34)o2)cc1Cl,2.4%,0%,1,-6%
Cc1csc(NC(=O)c2ccc(C)c(S(=O)(=O)N3CCCCC3)c2)n1,?,-6%,1,5%

# An excerpt; count on the stated rates, not on these rows.
